Screens deposited in PubChem by several laboratories.
GALR2 agonist – activates the human galanin receptor 2; O43603; 140,000 tested, 0.48% active; AID 803; GALR2-expressing cells, agonist activation read-out; activation, %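 (tested at 5 µM)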;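 active = above mean plus 3 SD of all compounds, about 5% in these data, not always enough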;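 also: 0% = vehicle buffer wells and 100% = reference agonist at full effect; tested in CHO reporter cells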
Target sequence (O43603 whole entry, looked up): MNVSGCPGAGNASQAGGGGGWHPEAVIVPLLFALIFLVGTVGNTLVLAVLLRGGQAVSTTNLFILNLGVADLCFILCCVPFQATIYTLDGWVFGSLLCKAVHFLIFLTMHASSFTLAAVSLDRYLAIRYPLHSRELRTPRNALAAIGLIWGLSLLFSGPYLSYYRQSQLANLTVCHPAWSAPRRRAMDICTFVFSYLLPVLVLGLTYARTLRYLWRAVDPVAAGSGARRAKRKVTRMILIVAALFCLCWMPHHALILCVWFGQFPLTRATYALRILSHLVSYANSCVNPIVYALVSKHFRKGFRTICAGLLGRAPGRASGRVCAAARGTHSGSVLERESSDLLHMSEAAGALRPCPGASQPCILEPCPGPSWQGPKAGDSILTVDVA
RGS16-Gao – modulates binding between human RGS16 and Galphao; O15492+P09471; bead-based flow cytometry RGS16-Galphao binding, fluorescence; actives lie on both sides; binding response (% of control), % at 10 µM; 220,000 tested, 0.38% active;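 active = below 25% or above 175%, edge rows of some plates excepted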;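 also: Galphao activated by GDP with aluminum fluoride before binding; 100% = wells without compound and 0% = beads without RGS; some results beyond the cut were filed as inactive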
Target sequence (O15492 whole entry, looked up): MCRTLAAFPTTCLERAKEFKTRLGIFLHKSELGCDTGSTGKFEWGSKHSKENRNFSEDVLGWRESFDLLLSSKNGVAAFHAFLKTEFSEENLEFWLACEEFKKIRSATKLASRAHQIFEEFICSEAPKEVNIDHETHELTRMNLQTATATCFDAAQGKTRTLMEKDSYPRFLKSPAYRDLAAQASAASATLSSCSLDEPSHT
Target sequence (P09471 whole entry, looked up): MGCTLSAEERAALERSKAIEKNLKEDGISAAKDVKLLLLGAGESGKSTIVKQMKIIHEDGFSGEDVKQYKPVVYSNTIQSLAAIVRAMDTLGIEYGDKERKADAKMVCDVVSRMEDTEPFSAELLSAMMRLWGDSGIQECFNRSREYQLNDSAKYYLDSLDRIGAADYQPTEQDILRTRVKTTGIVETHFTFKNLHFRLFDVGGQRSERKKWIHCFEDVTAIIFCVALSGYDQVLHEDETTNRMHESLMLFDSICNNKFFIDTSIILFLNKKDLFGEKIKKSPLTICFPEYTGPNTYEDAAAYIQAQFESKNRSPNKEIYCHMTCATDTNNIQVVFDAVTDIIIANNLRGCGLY
PKD1 kinase inh – inhibitors of human PKD1 kinase. 200,000 tested, 0.056% active. Q15139. PKD1 kinase fluorescence polarization assay. inhibition, %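 (about 10 µM by stock and volumes)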;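 active = inhibition of 50% or more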;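 also: controls were vehicle for no effect and a reference inhibitor for full effect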
HSV augment – increases HSV replication in cells | 220,000 tested, 0.005% active | HSV replication augmentation in cells, fold increase | maximum fold increase;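 active = peak rise of 1.5-fold or more in the series; tested in PC3 cells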;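 also: first round at 10 µM; read as green reporter fluorescence; hits show the peak of a series up to 25 µM; 1 = signal of infected wells without compound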
INS promoter inh – TRM-6 insulin promoter activity inhibition; TRM-6 cells (human fetal islet line), insulin promoter-eGFP reporter, imaging; reporter expression induced with tamoxifen; inhibition, % at 2 µM; 130,000 tested, 0.9% active;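 active = inhibition above the mean plus 3 SD, with well images judged a real hit on visual review, cut at about 60% in these data, passing the limit was not always enough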
INS promoter inh cell count – recorded beside INS promoter inh, whose call it bears; normalized cell count, %; measured here: cell count, toxicity; reference of the scale not given here;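 cells exposed to compound for 48 h; stained nuclei by imaging scaled within each plate; lower means fewer cells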
HSV augment primary fold – also measured in HSV augment; calls as there; fold increase; compound at 10 µM; measured here: primary screen fold increase 10 uM; tested in PC3 cells;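 GFP signal in the first replicate; 1 = infected wells without compound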
Active calls of the source: *; i = inactive; nt = not tested or not shown.

mol | INS promoter inh | GALR2 agonist | HSV augment primary fold | HSV augment | INS promoter inh cell count | PKD1 kinase inh | RGS16-Gao
Cc1ccc(NC(=O)CCNCc2ccco2)cc1S(=O)(=O)N(C)C | nt | nt | 0.95 | i | nt | -4 | 115
OCCNc1nc(Nc2cccc(O)c2)nc2ccccc12 | nt | nt | 0.78 | i | nt | nt | 96
CC1=C(C(=O)N2CCOCC2)C(c2ccccc2F)C2=C(CC(C)(C)CC2=O)N1 (stereo not given) | nt | -0.8 | 0.78 | i | nt | -5 | 102
O=C(O)CCC(=O)Nc1ccc(C(=O)OCC(=O)c2ccc(Cl)cc2)cc1 | nt | nt | 0.93 | i | nt | -5 | 111
Cc1nc(SCC(=O)NNC(=O)c2cccs2)[nH]c(=O)c1C | 25 | nt | 1 | i | 142 | 8 | 102
O=C(c1cccc(Cl)c1)N1CCC(N2CCC(C(=O)N3CCOCC3)CC2)CC1 | nt | nt | 1 | i | nt | -6 | 98
Cc1ccc(SC(C)C(=O)NC(N)=O)c(C)c1 (stereo not given) | 36 | nt | 0.98 | i | 31 | -3 | 109
O=[N+]([O-])c1ccc(C2OCCO2)cc1CS(=O)(=O)c1ccccc1 | 27 | nt | 0.97 | i | 77 | -8 | 106
O=C(Nc1ccccc1)C1CCN(c2nccs2)CC1 | -35 | -1.3 | 1 | i | 74 | -9 | 101
CNC(=S)N/N=C(\C)c1ccc(Cl)c(Cl)c1 | nt | nt | 1 | i | nt | -5 | 102
O=C(Cc1ccccc1[N+](=O)[O-])N1CCN(c2ccccc2F)CC1 | nt | -0.5 | 0.98 | i | nt | 6 | 100
CCOC(=O)CC1(C)NC(=O)c2c(C)sc(C(=O)OCC)c2N1 (stereo not given) | -50 | 0.0 | nt | nt | 143 | -6 | 103
CCc1ccc(S(=O)(=O)NCc2cn3cccc(C)c3n2)s1 | 0 | -1.7 | 1 | i | 84 | -2 | 100
O=C(CSc1nnc(-c2ccco2)o1)NCC(=O)c1ccccc1 | 10 | -0.8 | 0.85 | i | 73 | -2 | 125
Cc1cc(N2CCOCC2)c2c(N)c(Br)cc(C)c2n1 | nt | -0.8 | 0.83 | i | nt | -4 | 106
Cn1c(=O)cc(C(=O)N/N=C/c2ccc(F)cc2)[nH]c1=O | nt | nt | 0.77 | i | nt | nt | 106
O=[N+]([O-])c1ccc(Oc2ccc(S(=O)(=O)N3CCCCC3)cc2)cc1 | 41 | -0.7 | 0.98 | i | 89 | 8 | 80
CCOC(=O)C1=C(c2ccccc2)OC(N)=C(C#N)C1c1cccnc1 (stereo not given) | 7 | nt | 1 | i | 35 | 7 | 109
Cc1ccc(-c2oc3ccccc3c(=O)c2O)cc1 | nt | -0.5 | 1 | i | nt | -2 | 101
CCOC(=O)c1c(NC(=O)CSc2ncn[nH]2)sc(C)c1C | -38 | -0.5 | 0.7 | i | 126 | -7 | 100

2 of the compounds above, as labelled records:
CCc1ccc(S(=O)(=O)NCc2cn3cccc(C)c3n2)s1
  INS promoter inh: 0; GALR2 agonist: -1.7; HSV augment primary fold: 1; HSV augment: i; INS promoter inh cell count: 84; PKD1 kinase inh: -2; RGS16-Gao: 100
O=C(CSc1nnc(-c2ccco2)o1)NCC(=O)c1ccccc1
  INS promoter inh: 10; GALR2 agonist: -0.8; HSV augment primary fold: 0.85; HSV augment: i; INS promoter inh cell count: 73; PKD1 kinase inh: -2; RGS16-Gao: 125

(list continues)
mol | INS promoter inh | GALR2 agonist | HSV augment primary fold | HSV augment | INS promoter inh cell count | PKD1 kinase inh | RGS16-Gao
CCCN(CCC)S(=O)(=O)c1ccc(C(=O)N2CC3CCC(CC3)C2)cc1 | nt | nt | 0.98 | i | nt | nt | 106
O=C1C=CN(Cc2ccccc2)CC1 | nt | nt | 0.83 | i | nt | nt | 104
N#Cc1nc(-c2ccc(OCc3ccc(Cl)cc3)cc2)oc1NCCCn1ccnc1 | 54 | -1.7 | 0.92 | i | 123 | -9 | 98
C=CCS(=O)(=O)N1CCCC(C(=O)c2cccc(Cl)c2)C1 (stereo not given) | nt | nt | 0.95 | i | nt | 6 | 108
Cc1cc(NC(=O)CCCC(=O)NCc2ccccc2)no1 | -5 | nt | 0.92 | i | 92 | 2 | 98
Cc1ccc2c(c1Br)/C(=N/N1C(=O)c3ccccc3C1=O)C(=O)N2 | nt | -1.2 | nt | nt | nt | -4 | 89
Cc1ccc(OCCSCc2nnc(NC(=O)Nc3cccc(Cl)c3)s2)cc1 | -31 | 0.3 | 0.65 | i | 101 | -6 | 101
CC1CCN(C(=O)COC(=O)c2cc(Cl)cc(Cl)c2N)CC1 | 38 | -0.2 | 0.78 | i | 62 | 5 | 103
O/N=C1/CCc2cccc3cccc1c23 | 0 | 0.1 | 0.82 | i | 49 | 1 | 99
Cc1cccc(-c2nc(CS(=O)CC(=O)N3CCCCC3)c(C)o2)c1 (stereo not given) | nt | -2.4 | 0.69 | i | nt | 0 | 94
COc1ccc(N2C(=O)CCC2(C(N)=O)c2ccccc2)cc1 (stereo not given) | -15 | nt | 0.8 | i | 146 | -11 | 115
CCN(CC)c1cccc(OC2=NS(=O)(=O)c3ccccc32)c1 | nt | -0.2 | 1.1 | i | nt | -8 | 97
O=C(NCc1cccs1)C1CC(c2ccc(F)cc2)=NO1 (stereo not given) | nt | nt | 0.99 | i | nt | 0 | 100
C/C(=N\NS(=O)(=O)c1ccc(Cl)cc1)c1ccc(O)cc1 | -3 | -1.7 | 0.93 | i | 72 | -15 | 102
CCOc1ccc2nc(NC(=O)c3cnccn3)sc2c1 | nt | -1.3 | nt | nt | nt | 3 | 75
O=C(c1ccc(F)cc1)N1CCCC(c2ccccc2)C1 (stereo not given) | -39 | nt | 0.93 | i | 196 | 3 | 103
COc1ccc(NC(=O)CCCN2C(=O)CCC2=O)cc1Cl | 35 | -1.4 | 0.88 | i | 132 | -8 | 90
Cc1sc(NC(=O)COc2cccc(-n3cnnn3)c2)c(C#N)c1C | 33 | 0.8 | 0.81 | i | 106 | -14 | 72
COC(=O)c1cc(S(=O)(=O)C(C)C)c(S(C)=O)s1 (stereo not given) | nt | nt | 0.6 | i | nt | nt | 102
CC(C)Sc1ccc(C(=O)Nc2ccc(F)cc2F)cn1 | nt | nt | 0.96 | i | nt | 1 | 101

Among those listed so far, these contain bromine:
mol | INS promoter inh | GALR2 agonist | HSV augment primary fold | HSV augment | INS promoter inh cell count | PKD1 kinase inh | RGS16-Gao
Cc1cc(N2CCOCC2)c2c(N)c(Br)cc(C)c2n1 | nt | -0.8 | 0.83 | i | nt | -4 | 106
Cc1ccc2c(c1Br)/C(=N/N1C(=O)c3ccccc3C1=O)C(=O)N2 | nt | -1.2 | nt | nt | nt | -4 | 89

Going on with the list.
mol | INS promoter inh | GALR2 agonist | HSV augment primary fold | HSV augment | INS promoter inh cell count | PKD1 kinase inh | RGS16-Gao
COCC(C)NC(=O)c1oc2c(c1C)C1(CCC2)SCCS1 (stereo not given) | -43 | 0.6 | 0.97 | i | 86 | -10 | 122
Cc1cc(C)cc(OCC(=O)N/N=C/c2ccco2)c1 | nt | nt | 0.79 | i | nt | -2 | 103
O=c1cc(O)c2c(=O)n(-c3ccccc3)c3c(c2o1)CCCCCC3 | 30 | -1.2 | 0.89 | i | 75 | -4 | 104
O=C(CC1C(=O)NCCN1C(=O)Nc1ccccc1)Nc1cccc(C(F)(F)F)c1 (stereo not given) | 33 | -1.0 | 0.81 | i | 79 | -9 | 101
COc1ccc(CCNc2ncnc3cc(OC)c(OC)cc23)cc1OC | 33 | nt | 0.81 | i | 188 | 6 | 103
Cc1ccc(NC(=O)CC(O)(C(F)(F)F)C(F)(F)F)c(Br)c1 | -3 | -4.1 | 0.7 | i | 115 | 0 | 102
Cc1ccc(N2C(=O)CC(N(O)C3CC(=O)N(c4ccc(C)cc4)C3=O)C2=O)cc1 (stereo not given) | -35 | -1.5 | 0.94 | i | 64 | -2 | 105
CCc1nc(SCC(=O)NNC(=O)C2CCCCC2)c2ccccc2n1 | -23 | -3.0 | 0.95 | i | 70 | 11 | 98
Cc1ccc(C(=O)N/C(=C/c2cccc([N+](=O)[O-])c2)C(=O)NCC2CCCO2)cc1 (stereo not given) | nt | nt | 0.9 | i | nt | 4 | 101
COC(=O)CSC1=C(C#N)C(c2ccc(C)cc2)C2=C(CCCC2=O)N1 (stereo not given) | 67 | -1.3 | 0.87 | i | 112 | -8 | 108
NS(=O)(=O)c1ccc(NC(=O)COC(=O)c2ccco2)cc1 | nt | nt | 0.99 | i | nt | -1 | 102
COc1cc(C)c(C)cc1S(=O)(=O)N1CCCCC1c1cccnc1 (stereo not given) | 6 | -2.4 | 0.89 | i | 93 | 5 | 103
O=C(/C=C/Nc1ccc(S(=O)(=O)Nc2ncccn2)cc1)c1ccc(Cl)c(Cl)c1 | 6 | -0.8 | 1.3 | i | 99 | 0 | 67
O=c1c2ccc(Cl)cc2[nH]c(=S)n1CCCN1CCOCC1 | -82 | nt | 1 | i | 71 | -1 | 108
CCOc1ccc(C(C)NC(=S)NC2CCCCC2)cc1OCC (stereo not given) | nt | nt | 0.9 | i | nt | -8 | 98
COc1cc2nc(CN(CCC(C)C)Cc3nc4cc(OC)c(OC)cc4c(=O)[nH]3)[nH]c(=O)c2cc1OC | nt | -0.3 | 1.1 | i | nt | 2 | 101
COc1ccc(CC(=O)Nc2cccc(SC)c2)cc1 | nt | -0.9 | 0.91 | i | nt | -11 | 33
COc1ccc(NC(=O)CSc2nnc(Cn3cnc4ccccc43)o2)cc1 | -26 | nt | 1.1 | i | 131 | 0 | 101
O=C(O)CC1C(=O)NCCN1Cc1cccs1 (stereo not given) | -45 | nt | 0.92 | i | 123 | 2 | 99
O=C(Nc1cccc(O)c1)c1ccccc1 | -106 | -0.7 | 0.92 | i | 106 | -11 | 102
Cc1ccc(SCc2cn3cc(Cl)ccc3n2)cc1 | nt | nt | 0.98 | i | nt | nt | 103
O=C(CN(C(=O)C1COc2ccccc2O1)c1ccccc1)NCC1CCCO1 (stereo not given) | nt | -1.0 | 0.81 | i | nt | 6 | 140
Cc1ccc(OCCNC(=O)Cn2cnc3c(=O)n(C)c(=O)n(C)c32)cc1C | -338 | -1.8 | 0.76 | i | 69 | -4 | 78
COc1ccccc1/C=C/C1(C(=O)NC2CCCC2)CC(=O)N1c1ccccc1 (stereo not given) | nt | nt | 0.76 | i | nt | nt | 99
O=C(NCc1ccncc1)c1cc(-c2ccc(Cl)cc2)oc1C(F)(F)F | nt | nt | 0.8 | i | nt | nt | 103
O=C(COC(=O)c1cccc(S(=O)(=O)N2CCOCC2)c1)Nc1ccc2c(c1)OCO2 | 10 | -3.2 | 0.97 | i | 105 | 2 | 101
Cc1ccc(Cl)cc1Nc1nc(-c2sc(NC(=O)C(C)(C)C)nc2C)cs1 | nt | -2.1 | 0.99 | i | nt | 25 | 96
CN(Cc1ccsc1)C(=O)CCc1nnc(CCCc2ccccc2)o1 | nt | nt | 0.96 | i | nt | -6 | 104
O=C(CC12CC3CC(CC(C3)C1)C2)NCC(c1ccc(F)cc1)N1CCOCC1 (stereo not given) | -67 | nt | 1 | i | 120 | -7 | 101
Cc1cnc(NC(=O)Cn2cnc3c2c(=O)n(C)c(=O)n3C)s1 | nt | nt | 0.82 | i | nt | nt | 91
CCOc1ccc(-c2c(C(=O)N/N=C/c3ccccc3)nnn2-c2nonc2N)cc1 | nt | nt | 1 | i | nt | nt | 95
COc1ccc(Nc2nc(-c3cccs3)cs2)cc1 | -6 | -1.3 | 0.81 | i | 144 | 1 | 103
COc1ccc(NC(=O)CC(Cc2ccccc2)C(=O)O)cc1 (stereo not given) | -15 | -0.1 | 1.1 | i | 98 | -1 | 106
COC(=O)c1cc(NC(=O)CSC2=NCCS2)cc(C(=O)OC)c1 | nt | nt | 0.95 | i | nt | -7 | 85
CCn1c2ccccc2c2cc(NC(=O)CC(C)=O)ccc21 | 23 | -0.9 | 0.9 | i | 110 | 1 | 94
CCOc1cc(C2C3=C(CCCC3=O)N(CCC(=O)O)C3=C2C(=O)CCC3)ccc1OS(=O)(=O)c1ccc(C)cc1 | 30 | 1.1 | 0.9 | i | 101 | -4 | 99
Cc1ccc(C2CC(C(F)F)n3ncc(C(=O)Nc4cnn(Cc5ccccc5C)c4)c3N2)cc1 (stereo not given) | nt | -1.0 | 0.67 | i | nt | -2 | 103
CNC(=O)N(C1=NCC(C)S1)c1ccc(F)cc1F (stereo not given) | 10 | -2.8 | 0.85 | i | 41 | 3 | 96
CC(C)=CCCC(C)CN1CCC(O)CC1 (stereo not given) | 24 | -2.1 | 0.94 | i | 113 | -4 | 94
CCCCC(CC)C(=O)Nc1ccc(S(=O)(=O)Nc2nccs2)cc1 (stereo not given) | nt | nt | 0.97 | i | nt | nt | 99
